2A Renilla = FMDV 2A StopGo reporter, Renilla signal; HEK cells with a luciferase reporter of 2A StopGo recoding; Potency, µM (top dose mostly 57.5 µM), without a hit: at the highest dose signal change, negative = less light; 0.32% of 120,000 active; AID 1745857; active means well fitted falling curve with a large enough effect; inconclusive means small, poorly fitted or top-dose-only effect; inactive means no such curve, though single readings can be large or run the other way; also: nearly all actives have a fitted effect of over 55% in size; overnight with compound
2A firefly = lowers the firefly signal of an FMDV 2A StopGo reporter | Potency, µM (series often up to 57.5 µM), without a hit: top-dose signal change, negative = less light | HEK cells with a luciferase reporter of 2A StopGo recoding | 0.23% of 120,000 active; active = well fitted falling curve with a large enough effect; inconclusive = small, poorly fitted or top-dose-only effect; inactive = no such curve, though single readings can be large or run the other way; also: nearly all actives have a fitted effect of over 60% in size; overnight with compound
Numbers without * were called inactive; ? = inconclusive; [ ] = dose if it differs, or a comment. % is scaled to controls: 0 for no effect and ±100 for the full control effect; potency is read from the fitted curve at half-maximal effect. Outcome played no part in choosing rows; about 0.55% have a hit in one of these screens.

SMILES	2A Renilla	2A firefly
CC1=C/C(=N/Nc2nc3ccccc3[nH]2)CC1	11%	-40%
COc1ccc(C(=O)Nc2nc(-c3ccc(Br)cc3)ns2)cc1	-4%	-15%
Cc1cccc(NC(=O)CSc2nnc(C)c(=O)[nH]2)c1	4%	4%
Cc1cccc(N2CCN(S(=O)(=O)c3ccc4[nH]c5c(c4c3)CCCCC5)CC2)c1C	3%	-6%
Cc1ccc(CCNC(=O)Cn2nc(-c3ccc(C)cc3)ccc2=O)cc1	-15%	-10%
c1cnc(N2CCN(c3ncc4c(n3)CCNC4)CC2)nc1	12%	10%
O=C(O)C1(c2ccc(Cl)cc2)CCCCC1	8%	5%
N#Cc1cccc(Cn2c(CN3CCCCC3)nc3scc(-c4cccs4)c3c2=O)c1	11%	8%
CC1CN(Cc2nc3cc(Cl)ccc3n2Cc2ccccc2)CCO1 (stereo not drawn)	20%	1%
CSc1nc2n(n1)C(c1ccc(Cl)c(Cl)c1)C1=C(CCCC1=O)N2 (stereo not drawn)	-3%	3%
O=C(CCCCCCC(=O)Nc1ccccc1)NO	291%[activator]	224%[activator]
CCOC(=O)c1ccc(NC(=O)Cn2ncc3c(C)n(Cc4ccccc4F)c(C)c3c2=O)cc1	-3%	10%
Cc1ccc(OCC(=O)NCC(=O)OCc2cc(=O)n3nc(C)sc3n2)cc1	-11%	-15%
O=C(NCCc1ccccc1)c1cnc2sc(N3CCCCC3)nn2c1=O	-9%	22%
CC(C)NC(=O)NCc1c(-n2cccc2)sc2c1CCN(C)C2	-6%	-3%
Cc1ccc(NC(=O)C2CCN(S(=O)(=O)c3c(C)noc3/C=C/c3cccs3)CC2)cc1F	-3%	-11%
Cc1[nH]c2ccccc2c1C1c2ccccc2C(=O)N1CCc1ccccc1 (stereo not drawn)	0%	?
Cc1nc2ccccc2n2c(-c3ccccc3)c3c(=O)n(C)c(=O)n(C)c3c12	-10%	-12%
CC(C)Oc1cccc(C(=O)Nc2ccc(-c3nc4cc(Cl)cc(Cl)c4o3)cc2)c1	-5%	-7%
NC(=O)C(Oc1ccc(Cl)c(Cl)c1)c1ccccc1 (stereo not drawn)	30%[activator]	0%

Molecules listed so far containing fluorine:
SMILES	2A Renilla	2A firefly
CCOC(=O)c1ccc(NC(=O)Cn2ncc3c(C)n(Cc4ccccc4F)c(C)c3c2=O)cc1	-3%	10%
Cc1ccc(NC(=O)C2CCN(S(=O)(=O)c3c(C)noc3/C=C/c3cccs3)CC2)cc1F	-3%	-11%

Returning to the listing, starting four compounds before the break.
SMILES	2A Renilla	2A firefly
Cc1[nH]c2ccccc2c1C1c2ccccc2C(=O)N1CCc1ccccc1 (stereo not drawn)	0%	?
Cc1nc2ccccc2n2c(-c3ccccc3)c3c(=O)n(C)c(=O)n(C)c3c12	-10%	-12%
CC(C)Oc1cccc(C(=O)Nc2ccc(-c3nc4cc(Cl)cc(Cl)c4o3)cc2)c1	-5%	-7%
NC(=O)C(Oc1ccc(Cl)c(Cl)c1)c1ccccc1 (stereo not drawn)	30%[activator]	0%
O=S(=O)(Nc1ccc(F)c(C(F)(F)F)c1)c1ccc(N2CCCCS2(=O)=O)cc1	85%[activator]	?
COc1ccc(S(=O)Cc2ccc(C(=O)N3CCN(c4cccc(C)c4C)CC3)o2)cc1 (stereo not drawn)	-7%	-11%
CC(C)Cc1ccc(C(NC(=O)CC2(C(=O)O)CCCC2)c2cccs2)cc1 (stereo not drawn)	11%	-3%
CCOc1ccc(C2CC(=O)c3c([nH]c(C(=O)OC4CCC(C)CC4)c3C)C2)cc1 (stereo not drawn)	-11%	-11%
O=C(Nc1ccc(Cl)cc1F)C1CCCN1S(=O)(=O)c1ccc(Br)cc1 (stereo not drawn)	?	?
CCOC(=O)CSc1ncn(-c2nc(NC)nc(N3CCCCC3)n2)n1	5%	9%
CCOc1cc(C2C3=C(CCCC3=O)OC3=C2C(=O)CCC3)ccc1OCC(=O)O	3%	4%
CCOC(=O)C(NC(=O)/C=C/c1c(Cl)cccc1Cl)C(=O)OCC	6%	10%
O=S(=O)(c1cccc2nsnc12)N(Cc1ccccc1)C1CC1	0%	-10%
NC(=O)[C@@H]1CSSCCC(=O)N[C@@H](CCCCN=C(N)N)C(=O)NCC(=O)N[C@@H](CC(=O)O)C(=O)N[C@@H](Cc2c[nH]c3ccccc23)C(=O)N2CCC[C@H]2C(=O)N1	-10%	-20%[11.5 µM]
CC(=O)Nc1ccc(NC2=C(C(N)=O)S(=O)(=O)c3ccccc32)cc1	2%	9%
COC(=O)c1ccccc1NS(=O)(=O)c1c(C)nn(C)c1C	25%	-5%
N#Cc1nc(-c2ccc(Cl)cc2)oc1NCc1ccc(Cl)cc1	8%	-1%
N#CCCN(C(=O)COC(=O)c1cc(Cl)ccc1[N+](=O)[O-])c1cccc(C(F)(F)F)c1	-22%	?
c1ccc2c(c1)OCC(CSc1nnnn1C1CCCC1)O2 (stereo not drawn)	28%	169%[activator]
CC(=O)N/N=C(\C)c1ccccc1	2%	24%
Cc1c(C(=O)N(Cc2ccc(Cl)cc2)CC2CCCO2)oc2ccc(F)cc12 (stereo not drawn)	18%	-3%
Cn1c(=O)[nH]c(=O)c2c1nc(SCC(N)=O)n2Cc1ccccc1Cl	37%[activator]	48%[activator]
COc1ccc(C(=O)c2c(C)oc3cc(C#N)c(C#N)cc23)cc1	-14%	-2%
OCCCc1nc2n(n1)C(c1cccc(Cl)c1)C=C(c1ccccc1)N2 (stereo not drawn)	-4%	-13%
O=C(Cn1c(=O)c2c(ncn2C2CCCC2)n(Cc2ccccc2)c1=O)Nc1ccccc1	-1%	14%
CCOc1c(Cl)cc(C(=O)NC(C)Cn2cccn2)cc1OC (stereo not drawn)	-5%	-3%
CCOC(=O)c1c(CN2CCC(C(=O)NCC(F)(F)F)CC2)nc2ccccc2c1C	-4%	2%
CCOC(=O)CSC(C(N)=O)c1ccccc1 (stereo not drawn)	16%	0%
COc1ccc(/C=C/C(=O)c2ccc(O)cc2)cc1C	6%	0%
COCCNC(=O)CS(=O)Cc1nc(-c2ccc(C)cc2)oc1C (stereo not drawn)	-7%	11%
Cc1c(F)cc(C(N)=O)cc1NS(=O)(=O)c1ccc(C(F)(F)F)cc1	-7%	-32%
CCCn1cc(S(=O)(=O)c2cccc(Cl)c2)c(=O)c2cc(F)c(N3CCN(CC)CC3)cc21	0%	0%
NS(=O)(=O)c1ccc(N/N=C/c2cccc(Cl)c2)c([N+](=O)[O-])c1	5%	1%
Cc1ccc(C)c(C(=O)CCC(=O)NC23CC4CC(CC(C4)C2)C3)c1	21%	5%
O=C(CSCc1cccc(F)c1)NCc1ccccc1	-3%	155%[activator]
Cc1ccc(C)c(NC(=O)/C(C#N)=C/c2ccccc2OC(F)F)c1	0%	13%
Cn1c(=O)c2[nH]c(CN3CCN(c4ccccc4)CC3)nc2n(C)c1=O	-15%	-5%
CCN(C(=O)c1sc2nc3n(c(=O)c2c1C)CCCC3)c1ccccc1F	4%	1%
Cc1cccc(N2CCN(CC(=O)NC(=O)NCC(F)(F)F)CC2)c1	-12%	-7%
CCOC(=O)c1c(S(=O)(=O)N2CCCC(C(=O)N3CCN(c4ccc(F)cc4)CC3)C2)c(C)n(C)c1C (stereo not drawn)	-11%	-11%
CCCCC(=O)Oc1ccc(C2C3=C(CC(C)(C)CC3=O)OC3=C2C(=O)CC(C)(C)C3)cc1OC	19%	-2%
COc1cc(C2CC(=O)Nc3nc(-c4ccccc4)[nH]c(=O)c32)ccc1OCc1cccc(Cl)c1 (stereo not drawn)	-9%	-1%
COc1ccccc1NC(=O)c1cc2c(=O)n(Cc3cccs3)ccc2nc1C	-3%	11%
CCOc1cccc(C(=O)N(Cc2ccc(N(C)C)cc2)CC2CCCO2)c1 (stereo not drawn)	122%[activator]	-10%
Cc1ccccc1C1C=C(c2ccccc2)OC(c2ccccc2)=C1C=O (stereo not drawn)	69%[activator]	0%
C/C(CC(=O)Nc1cc(Cl)cc(Cl)c1)=N\NC(=O)c1cccnc1	-13%	0%
CCc1cc(C(N)=O)sc1C	-2%	0%
Cc1ccc(-c2cnc(CCC(=O)Nc3ccn(C)n3)o2)cc1	-11%	22%
O=C(NC1CCCCCC1)c1ccc2c(c1)sc1nc(-c3ccccc3)cn12	-4%	79%[activator]
Cc1ccc(S(=O)(=O)[C@H]2CS(=O)(=O)C[C@@H]2NCc2ccccn2)cc1	-17%	-6%
CCc1nc(-c2cc(S(=O)(=O)N3CCN(c4ccccc4F)CC3)ccc2OC)no1	-5%	?
O=C(c1ccc(S(=O)(=O)N2CCOCC2)cc1)N(c1ccc(Cl)cc1)C1C=CS(=O)(=O)C1 (stereo not drawn)	-15%	-12%
CCOc1ccccc1/C=C1\Oc2cc(OS(C)(=O)=O)ccc2C1=O	48%[activator]	17%
Cc1cccc(CN2C(=O)c3ccccc3Sc3ccc(C(=O)NC4CCCCC4)cc32)c1	-1%	-14%
C=C(C)CN(CC)C(=O)c1scnc1C	-16%	-9%
O=C(c1cc2c(s1)CCCCCC2)N1CCN(S(=O)(=O)c2ccccc2)CC1	3%	8%
Cc1ccccc1CSc1cn(CC(=O)N2CCCCCC2)c2ccccc12	48%[activator]	49%[activator]
C#CCN(CC(=O)NC(=O)NC)C1CCCCC1	-1%	-8%
Nc1nc(COC(=O)c2cccc(Cl)c2)nc2ccccc12	-10%	0%
COc1cc(NC(=O)c2ccc(Cn3cc(Cl)cn3)cc2)ccc1OC(F)F	?	?
COc1cc(NC(=O)c2cc(=O)[nH]c3ccccc23)cc(OC)c1	9%	7%
COc1ccc(C(=O)NCCn2cc(SCC(=O)Nc3cccc(C)c3)c3ccccc32)cc1	47%[activator]	-25%
O=C(C1CC1)N(Cc1ccc2c(c1)CN(S(=O)(=O)c1cc(F)cc(F)c1)CCO2)c1ccccc1	-3%	-25%
C=CCOc1ccccc1NC(=O)c1ccccc1	17%	22%

Among those listed so far, these have a nitro group on carbon.
SMILES	2A Renilla	2A firefly
N#CCCN(C(=O)COC(=O)c1cc(Cl)ccc1[N+](=O)[O-])c1cccc(C(F)(F)F)c1	-22%	?
NS(=O)(=O)c1ccc(N/N=C/c2cccc(Cl)c2)c([N+](=O)[O-])c1	5%	1%

(next part)
SMILES	2A Renilla	2A firefly
Cc1ccc2c(CNCCc3ccccc3)c(C(=O)O)n(Cc3ccccc3C)c2c1	10%	-8%
CSc1ccccc1C(=O)Nc1c(C)cc(C)cc1Cl	20%	13%
CCC(C)NC(=O)Cc1c(C)nc2ccccc2c1C (stereo not drawn)	12%	17%
COc1ccc(CNC(=O)CC2CCN(C(=O)c3ccc4nc(-c5ccccc5)oc4c3)CC2)cc1	4%	0%
O=C1CSC2(C(=O)Nc3ccccc32)N1c1ccc(Cl)c(Cl)c1 (stereo not drawn)	-24%	-17%
OC(CNCc1ccc2ccccc2c1)c1ccccc1 (stereo not drawn)	16%	0%
COc1cc(C#N)cc(Cl)c1OC(C)=O	-13%[1.06 µM]	6%

Complete entries, looked up by structure. Order of screens: 2A Renilla, 2A firefly
Cc1ccc2c(CNCCc3ccccc3)c(C(=O)O)n(Cc3ccccc3C)c2c1 is listed as 10%, -8%
O=C1CSC2(C(=O)Nc3ccccc32)N1c1ccc(Cl)c(Cl)c1 (stereo not drawn) is listed as -24%, -17%

Screens deposited in PubChem BioAssay by National Center for Advancing Translational Sciences (NCATS).
